PABP polyA inh = PABP-poly(A) binding inhibition. PABP-poly(A) RNA binding, fluorescence polarization. inhibition, % at 35 µM. 290,000 tested, 1% active;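 active = 50% or more with normal probe brightness, or confirmed in later tests; inconclusive = above 50% with abnormal brightness, or retests that disagree; inactive = below 50% or failed in later tests; about a fifth of its hits are not listed in these tables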;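 note: calls also rest on retests at 20 µM and on dose response follow-up; controls were probe without protein and protein plus probe with vehicle; some compounds called inactive have numbers as strong as hits; many hits fall short of the cut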
Target sequence (P11940 whole entry, looked up): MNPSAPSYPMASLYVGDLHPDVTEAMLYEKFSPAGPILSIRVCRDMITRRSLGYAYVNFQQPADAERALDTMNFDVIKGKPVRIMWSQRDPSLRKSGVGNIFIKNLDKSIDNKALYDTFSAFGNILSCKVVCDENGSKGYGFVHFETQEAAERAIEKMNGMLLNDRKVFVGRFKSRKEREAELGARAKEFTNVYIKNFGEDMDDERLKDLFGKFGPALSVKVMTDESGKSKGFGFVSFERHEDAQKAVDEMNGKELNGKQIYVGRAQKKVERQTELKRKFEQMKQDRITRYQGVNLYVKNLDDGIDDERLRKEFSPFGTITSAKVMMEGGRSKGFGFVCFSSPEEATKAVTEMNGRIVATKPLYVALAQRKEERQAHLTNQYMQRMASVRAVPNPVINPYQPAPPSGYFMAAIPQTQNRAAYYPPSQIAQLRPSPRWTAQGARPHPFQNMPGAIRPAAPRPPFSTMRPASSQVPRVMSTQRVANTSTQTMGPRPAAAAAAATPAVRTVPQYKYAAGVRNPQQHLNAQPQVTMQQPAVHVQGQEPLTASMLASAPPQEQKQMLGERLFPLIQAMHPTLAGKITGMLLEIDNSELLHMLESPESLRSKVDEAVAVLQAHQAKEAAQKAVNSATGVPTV
eIF4H FP inh = inhibitors of RNA binding by human eIF4H | 290,000 tested, 0.94% active | AID 2012 | Q15056 | eIF4H fluorescence polarization binding assay | inhibition, % at 35 µM;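 active = 50% or more with normal probe brightness, or confirmed in later tests; inconclusive = above 50% with abnormal brightness, or retests that disagree; inactive = below 50% or failed in later tests; about a fifth of its hits are not listed in these tables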;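 note: calls also rest on retests at 20 µM and on dose response follow-up; 0% = protein and probe with vehicle and 100% = probe without protein; strong numbers were not always called active; many hits fall short of the cut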
UUG fidelity = yeast start codon fidelity modulation; S. cerevisiae UUG-firefly luciferase reporter, luminescence/redox ratio; activity score, % at 18.7 µM; 350,000 tested, 0.13% active; AID 602363;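 active = replicate mean at a twofold rise or more, about +100% in these data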;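 note: firefly luciferase made from a UUG start codon reports start codon fidelity; reporter light over untreated wells divided by growth signal over untreated wells; some hits fall short of that in this replicate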
CSC inhib = blocks cancer stem cells. AID 2717. inhibition, % at 7.5 µM. cancer stem cell-like cells viability, luminescence. 300,000 tested, 1.1% active;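 active = mean at 75% or more and at least half the replicates too; inconclusive = mean and replicates disagree; tested in HMLE shEcad cells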;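 note: 0% = median of negative and 100% = median of positive control wells; the first replicate is given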
MT1-MMP act inh = inhibitors of human MT1-MMP activation. AID 651647. GFP/RFP ratio change, % at 20 µM. P50281. HT1080 RFP-PRO-GFP cells, GFP/RFP ratio fluorescence, overnight; percent of plate control window, DMSO zero. 360,000 tested, 0.061% active;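 active = GFP/RFP ratio change of at least 30% with cell ATP level not reduced by more than half and red fluorescence within 50% of control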; note: strong numbers were not always called active
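Material: RFP-PRO-GFP reporter HT1080 cells. Dosing: single-point 20 µM compound, 1% DMSO. Controls: DMSO and RFP-L50D-GFP cell wells. Timing: cells overnight before dosing, compound overnight, 37 °C, 5% CO2. Measure: GFP/RFP fluorescence ratio.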
HIV Env fusion = inhibitors of HIV Env-mediated cell fusion; HeLa-JRFL Env/CEM21 cell fusion, luciferase; inhibition, % at 12.3 µM; 360,000 tested, 1.1% active;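 active = mean replicate inhibition score of at least 50 and every replicate individually at or above 50; inconclusive = only one of the two criteria met; inactive = mean below 50 and not all replicates reaching 50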;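 note: 0% = plate neutral controls and 100% = maraviroc near 300 nM; one replicate is shown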
Rce1 inh = inhibitors of yeast Ras-converting enzyme. Q03530. yeast membranes, quenched prenylated peptide cleavage fluorescence. calls only. 290,000 tested, 0.27% active. AID 2563;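 active = fall in fluorescence gain of 50% or more versus controls, with final raw signal at or below 3038400; inconclusive = same 50% fall but final raw signal above 3038400; inactive = fall in fluorescence gain under 50%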;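 note: plate controls were neutral control wells for no effect and wells lacking membranes for full effect; tested at 10 µM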
Target sequence (Q03530 whole entry, looked up): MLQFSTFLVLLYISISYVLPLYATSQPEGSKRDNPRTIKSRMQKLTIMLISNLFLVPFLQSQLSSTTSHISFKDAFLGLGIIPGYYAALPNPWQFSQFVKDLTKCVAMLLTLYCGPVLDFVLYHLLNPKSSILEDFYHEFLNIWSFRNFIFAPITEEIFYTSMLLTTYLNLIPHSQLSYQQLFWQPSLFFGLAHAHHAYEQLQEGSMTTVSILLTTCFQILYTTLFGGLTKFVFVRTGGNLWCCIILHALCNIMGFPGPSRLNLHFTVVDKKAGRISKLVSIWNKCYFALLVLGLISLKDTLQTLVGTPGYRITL
eIF4H FP inh retest = recorded beside eIF4H FP inh, whose call it bears; inhibition, %; compound at 20 µM; confirmation average;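 mean of two retest wells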
PABP polyA inh retest = also measured in PABP polyA inh; calls as there; inhibition, %; compound at 20 µM; confirmation repeats;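 mean of two retest wells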
MT1-MMP act inh RFP = second read-out of MT1-MMP act inh, no call of its own (marks repeat the call); RFP signal change, %; measured here: RFP expression control read;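 0 = vehicle wells; hits needed this value within 50% of zero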
An asterisk follows results filed as active; i = inactive; u = inconclusive; x = no result given; & = joins results of further samples.

SMILES	PABP polyA inh	eIF4H FP inh	UUG fidelity	CSC inhib	MT1-MMP act inh	MT1-MMP act inh RFP	HIV Env fusion	Rce1 inh	others
O=c1c2ccccc2nc(-c2ccco2)n1-c1ccc(Br)cc1	-3	4	-11	45	2	-2	12	i
O=C(NC1CCCCC1)N1Cc2ccccc2-n2nncc2C1	x	x	-10	x	4	5	2	x
CCOC(=O)C1(CCOc2ccccc2)CCN(C(C)CSC)CC1 (stereo not given)	2	-6	2	-4	2	1	10	i
O=C1NC(=O)C(=Cc2ccc(-c3ccc(S(=O)(=O)N4CCOCC4)cc3)o2)C(=O)N1	10	37	-19	18	1	3	-21	i
COc1ccccc1N(CC(=O)NC1CCCC1)C(=O)c1cnn(C(C)C)c1	2	3	-14	13	-6	1	-14	i
Cc1nn(Cc2ccccc2)c(Cl)c1C(=O)NC1CCCc2ccccc21 (stereo not given)	-29	-7	x	-9	-8	-9	-12	i
CC(=O)Nc1ccc(C(=O)C(Cc2ccccc2)N(C)C)cc1 (stereo not given)	-4	-9	-3	6	-10	-9	-4	i
CCN(CC)CCCN=C(C)c1c(O)n(-c2ccccc2)c(=O)[nH]c1=O	0	4	-15	8	9	1	-26	i
N#Cc1ccc(N2CCNCC2)c(F)c1	4	4	-23	21	-3	3	x	i
Cc1ccsc1/C=C1\C(=O)NC(=S)N(C)C1=O	17	-2	-32	32	9	9	-8	i
CC(C)CN1CCN(Cc2c(F)cccc2Cl)CC1CCO (stereo not given)	3	-7	-20	-5	-1	2	-4	i
O=c1[nH]c(=O)n(Cc2ccco2)c(O)c1C=NC1CC1	0	-11	-10	x	-2	-1	x	i
O=c1cccc2n1CC1CC2CN(C(c2cccc(F)c2)c2sc3ncnn3c2O)C1 (stereo not given)	2	1	-11	-13	0	2	-3	i
CCC(=O)c1ccc(OCC(=O)N2CCN(CC(=O)Nc3ccccc3C(F)(F)F)CC2)cc1	x	x	12	-17	-5	-22	x	x
Cc1ccc(S(=O)(=O)N(c2cc(Cl)c(O)c(Cl)c2)P(=O)(OC(C)C)OC(C)C)cc1	24	-3	-16	-9	0	4	15	i
O=CC(Br)P(=O)(N1CCOCC1)N1CCOCC1 (stereo not given)	3	-1	-10	-11	2	3	0	i
CCC(=NC(C)c1ccccc1)c1c(O)[nH]c(=O)[nH]c1=O (stereo not given)	-8	-2	-23	-8	-1	0	3	i
CC(C)(C)n1nnnc1C(c1ccnc2ccccc12)N1CCC2(CC1)C(=O)NCN2c1ccccc1 (stereo not given)	x	x	3	x	4	0	20	x
CN1C(=O)C(Cc2ccc3c(c2)OCO3)C(=O)N(C)C1=O	-8	7	x	-7	x	x	x	i
CCC(=Nc1ccc(OC)cc1OC)c1c(O)n(C2CCCCC2)c(=O)[nH]c1=O	2	-9	-13	13	-9	-13	10	i

Next section, starting with the last two of the part before.
SMILES	PABP polyA inh	eIF4H FP inh	UUG fidelity	CSC inhib	MT1-MMP act inh	MT1-MMP act inh RFP	HIV Env fusion	Rce1 inh	others
CN1C(=O)C(Cc2ccc3c(c2)OCO3)C(=O)N(C)C1=O	-8	7	x	-7	x	x	x	i
CCC(=Nc1ccc(OC)cc1OC)c1c(O)n(C2CCCCC2)c(=O)[nH]c1=O	2	-9	-13	13	-9	-13	10	i
COc1cc(C(=O)Nc2ccc(Br)cc2C(=O)c2ccccc2)cc(OC)c1OC	1	-13	x	-11	1	2	x	i
COc1ccccc1Oc1c(C)oc2cc(OC(=O)N(C)C)ccc2c1=O	3	2	-29	2	2	0	6	i
COc1ccc(CN2C(=O)CC(=O)NC2=S)cc1	43	92	x	-1	12	26	-57	i	eIF4H FP inh retest=-4;PABP polyA inh retest=8
CCOC(=O)C1CCN(/C=C2\C(=O)NC(=S)N(CC)C2=O)CC1	-1	3	x	-6	7	17	0	i
Cn1cnc(CCN)c1	x	x	-11	-1	2	1	-12	i
Cc1cc(OCC(=O)N2C[C@H]3C[C@@H](C2)c2cccc(=O)n2C3)c2c(C)c(C)c(=O)oc2c1	-3	-1	-16	-9	-2	2	x	x
c1cncc(C2CCCCN2Cc2ccc3c(c2)OCO3)c1 (stereo not given)	27	9	-20	-2	0	-3	-16	i
COc1ccc(N2C(=O)NC(=O)/C(=C\c3cn(CC(=O)N4CCOCC4)c4ccccc34)C2=O)c(OC)c1	u	u	-9	x	-6	2	-37	i
CCC(c1nnnn1-c1ccc2c(c1)OCCO2)N1CCC(n2c(=O)[nH]c3ccccc32)CC1 (stereo not given)	x	x	15	x	-10	-1	34	x
Cc1ccc(S(=O)(=O)N2CCCC2c2cccnc2)cc1 (stereo not given)	-4	-4	-1	-13	1	1	-8	i
O=C(c1ccc(CS(=O)(=O)c2ccc(Br)cc2)o1)N1CCC2(CC1)OCCO2	9	-4	-9	-20	3	1	-25	i
CC1CCC(C(C)C)C(OC(=O)COC(=O)c2ccccc2N)C1 (stereo not given)	4	6	x	23	-4	-2	14	i
CCC(=Nc1ccc2c(c1)CCC2)c1c(O)n(C)c(=O)n(C)c1=O	7	5	-18	-2	-3	-16	x	i
C=CCN1CC[C@]23c4c5ccc(O)c4O[C@H]2C(=O)CC[C@@]3(O)[C@H]1C5	-9	4	-13&-13	0&-8	0&4	1&5	9&0	i
COC(=O)C1=C(c2ccc(C(C)=O)cc2)C[C@@H]2CC[C@H]1N2C(=O)NCCCOC(C)C	x	x	-8	-7	-1	6	-23	x
CCCC(C)CC1(CCO)C(=O)NC(=S)NC1=O (stereo not given)	x	x	-17	x	1	-1	-13	x
O=P(Nc1ccccc1)(Nc1ccccc1)Oc1ccc(Cl)cc1	1	-15	1	-27	2	-1	x	i
CN1CCc2nc(SCc3ccccc3Br)c(C#N)cc2C1	-2	10	x	27	-7	7	14	i
COc1ccccc1N1CCN(Cc2ccccc2Cl)CC1	22	-1	9	3	0	-10	-35	i
Cn1c(O)c(C=Nc2cccc(C(F)(F)F)c2)c(=O)n(C)c1=O	u	u	-11	18	-14	0	5	i
O=P(/C(=N/O)N1CCCCC1)(N1CCOCC1)N1CCOCC1	-2	0	9	-14	2	7	x	i
O=C1CC(=O)N(c2ccc(Cl)cc2)C(=O)N1	1	-8	-13	-8	-16	2	2	i
COc1c(/C=C2/C(=O)NC(=O)N(C)C2=O)c(CCN(C)C(=O)c2ccccc2)cc2c1OCO2	12	-6	-14	-1	1	1	x	i
COC(=O)Cn1cc(C=C2C(=O)N(C)C(=O)N(C)C2=O)c2ccccc21	u	u	x	0	x	x	11	i
CN(C)c1nc(N(C)C)nc(N(C#N)CCCl)n1	0	-2	x	-10	-3	-2	12	i
O=C1CSC2(CN3CCC2CC3)N1 (stereo not given)	-5	3	-11	8	-1	3	x	i
CC(N)Cc1c[nH]c2c1ccc1ccccc12 (stereo not given)	9	3	-4	3	2	4	2	i
COc1cc([C@@H]2c3cc4c(cc3[C@@H](OC)[C@H]3COC(=O)[C@H]23)OCO4)cc(OC)c1O	7	3	-18	49	6	-2	-30	i
COc1ccc(-c2ccc3c(c2)CN(C(=O)NC2CCCCC2)Cc2cnnn2-3)cc1	x	x	-7	x	-1	-9	-7	x
C[C@]12CCC3C(CC[C@H]4C[C@H](O)CC[C@]34C)C1[C@@H](O)C[C@@H]2O (stereo not given in full)	x	x	-28	-11	1	3	2	x
C[C@@H]1C2C[C@@]34COC(=O)C3=CC=C[C@H]4[C@@]13C[C@H](c1ccoc1)O[C@@H]3O2	34	7	x	7	x	x	x	x
COC(=O)C1=C(c2ccc3ccccc3c2)C[C@@H]2CC[C@H]1N2C(=O)N1CCCC1	x	x	-8	18	3	-7	x	x
O=P(Nc1cccnc1)(Oc1ccccc1Cl)Oc1ccccc1Cl	-5	3	x	-18	-1	1	-6	i
Brc1ccc(-[n+]2c(-c3ccccc3)cc(-c3ccccc3)cc2-c2ccccc2)cc1	x	x	-1	44	2	-30	24	i
Cc1ccccc1NC1=NCC(C)S1 (stereo not given)	-5	-2	-11	-7	17	2	-12	i
Cc1cc(OC(=O)N(C)C)n(-c2ccccc2)n1	3	7	-12	-1	0	5	10	i
CN(C)CCn1cnc2ccccc21	-3	-8	-19	-19	3	2	12	i
COc1ccc(C(O)P(=O)(OC(C)C)OC(C)C)cc1 (stereo not given)	-1	63	x	-17	2	-1	2	i	eIF4H FP inh retest=4;PABP polyA inh retest=5
COc1ccc(CC2(CCc3ccncc3)C(=O)NC(=O)NC2=O)cc1	0	-14	x	-11	0	5	3	i
COC(=O)C1=C(c2ccc(OC)c(OC)c2)C[C@@H]2CC[C@H]1N2C(=O)NCCc1ccccc1	x	x	-12	-10	1	-2	-13	x
O=C1NC(=O)N(c2ccc3c(c2)OCO3)C(=O)/C1=C/c1cccs1	2	15	x	26	5	4	-91	i
CCN1CCN(Cc2cc(Br)cc(Br)c2O)CC1	12	4	-7	8	0	6	-52	i
COc1cc(CC2C(=O)N(C)C(=O)N(C)C2=O)ccc1OCc1ccccc1	2	3	-17	1	0	1	x	x
CC1CCCC(NC(=O)COC(=O)Cc2ccccc2)C1C (stereo not given)	-5	7	7	-3	-1	2	-36	i
COc1ccc(C(O)c2ccccc2OP(=O)(N(C)C)N(C)C)cc1 (stereo not given)	-8	-5	x	0	2	4	x	i
O=C(CCCCCn1c(=S)[nH]c2ccccc2c1=O)N1CCC2(CC1)OCCO2	4	6	-16	-6	x	x	-20	i
CC(=O)O[C@H]1CC[C@@]2(C)C(=CC(=O)C3C2CC[C@@]2(C)C3C[C@H](OC(C)=O)[C@@H]2OC(C)=O)C1 (stereo not given in full)	x	x	-23	-9	0	1	-4	x

In the list so far, these contain a cyano group:
SMILES	PABP polyA inh	eIF4H FP inh	UUG fidelity	CSC inhib	MT1-MMP act inh	MT1-MMP act inh RFP	HIV Env fusion	Rce1 inh	others
N#Cc1ccc(N2CCNCC2)c(F)c1	4	4	-23	21	-3	3	x	i
CN1CCc2nc(SCc3ccccc3Br)c(C#N)cc2C1	-2	10	x	27	-7	7	14	i
CN(C)c1nc(N(C)C)nc(N(C#N)CCCl)n1	0	-2	x	-10	-3	-2	12	i

5 compounds drawn at random from the list so far:
SMILES	PABP polyA inh	eIF4H FP inh	UUG fidelity	CSC inhib	MT1-MMP act inh	MT1-MMP act inh RFP	HIV Env fusion	Rce1 inh	others
CC(=O)O[C@H]1CC[C@@]2(C)C(=CC(=O)C3C2CC[C@@]2(C)C3C[C@H](OC(C)=O)[C@@H]2OC(C)=O)C1 (stereo not given in full)	x	x	-23	-9	0	1	-4	x
COc1ccc(-c2ccc3c(c2)CN(C(=O)NC2CCCCC2)Cc2cnnn2-3)cc1	x	x	-7	x	-1	-9	-7	x
O=CC(Br)P(=O)(N1CCOCC1)N1CCOCC1 (stereo not given)	3	-1	-10	-11	2	3	0	i
c1cncc(C2CCCCN2Cc2ccc3c(c2)OCO3)c1 (stereo not given)	27	9	-20	-2	0	-3	-16	i
CCC(=Nc1ccc2c(c1)CCC2)c1c(O)n(C)c(=O)n(C)c1=O	7	5	-18	-2	-3	-16	x	i

Compound activity (PubChem)

A portion of the library (hit frequency here may not be typical).
